High-throughput results: PubChem, Broad Institute
UUG fidelity – modulators of start codon recognition fidelity in yeast | 0.13% of 350,000 active | activity score, % at 18.7 µM | S. cerevisiae UUG-firefly luciferase reporter, luminescence/redox ratio | AID 602363;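 active = replicate mean at a twofold rise or more, about +100% in these data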;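 note: firefly luciferase made from a UUG start codon reports start codon fidelity; reporter light over untreated wells divided by growth signal over untreated wells; some hits fall short of that in this replicate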
Active calls of the source: *. A portion of the library (hit frequency here may not be typical).

SMILES	UUG fidelity
CCNC(=O)[C@@H]1[C@@H](CO)[C@@H]2Cn3c(ccc(-c4ccccc4OC)c3=O)[C@@H]2N1S(C)(=O)=O	28
O=C(C[C@H]1C[C@@H]2c3cc(NC(=O)Nc4ccccc4)ccc3O[C@@H]2[C@H](CO)O1)NCc1cccc(F)c1	-1
O=S(=O)(c1cccs1)N1CCCCN2[C@@H](CO)[C@@H](c3ccc(Br)cc3)[C@@H]2C1	7
C[C@H]1CN([C@@H](C)CO)C(=O)c2cc(NC(=O)CCCN(C)C)ccc2O[C@@H]1CN(C)C(=O)Nc1ccccc1	-2
COc1ccc(S(=O)(=O)N2CC[C@H]3[C@@H](CO)N(C)c4ccc(C#Cc5ccccc5OC)cc4[C@H]32)cc1	-12
O=C(C[C@H]1CC[C@H]2[C@@H](COC[C@@H](O)CN2Cc2nccs2)O1)NCc1ccc(Cl)cc1	-8
O=C(C1CC1)N1CC[C@@H]2[C@@H](CO)Nc3ccc(-c4ccc(F)cc4)cc3[C@@H]21	-12
O=C(c1ccccn1)N1CC[C@@H]2[C@H](CO)Nc3ccc(-c4ccccc4F)cc3[C@@H]21	-13
C[C@@H]1CN([C@H](C)CO)C(=O)c2cc(NC(=O)c3ccncc3)ccc2O[C@@H]1CN(C)C(=O)Nc1ccc2c(c1)OCO2	-6
COc1ccc(CN(C)C[C@@H]2Oc3ccc(NC(=O)NC4CCCCC4)cc3C(=O)N([C@@H](C)CO)C[C@H]2C)cc1	14
C[C@@H]1CN([C@H](C)CO)C(=O)c2cccc(NC(=O)Nc3ccccc3)c2O[C@H]1CN(C)S(C)(=O)=O	2
C[C@H](CO)N1C[C@H](C)[C@@H](CN(C)C)Oc2ccc(NS(=O)(=O)c3ccccc3)cc2CC1=O	-2
CO[C@@H]1CN(C)C(=O)c2cc(NC(C)=O)ccc2OC[C@H](C)N(CCc2ccccc2)C[C@@H]1C	10
O=C(c1ccncc1)N1CCCCN2[C@H](CO)[C@@H](c3ccc(C#Cc4ccccn4)cc3)[C@H]2C1	2
COc1cccc(-c2ccc([C@@H]3[C@@H](CO)N4CCCCN(S(=O)(=O)c5cn(C)cn5)C[C@H]34)cc2)c1	12
COCC#Cc1ccc([C@@H]2[C@H](CO)N3CCCCN(S(=O)(=O)c4cccc(OC)c4)C[C@@H]23)cc1	-12
CO[C@@H]1CN(C)C(=O)c2cc(NC(=O)c3cnccn3)ccc2OC[C@@H](C)N(C(C)=O)C[C@@H]1C	-9
CN1c2ccc(C#Cc3ccc(F)cc3)cc2[C@H]2[C@H](CCN2S(=O)(=O)c2ccccc2F)[C@@H]1CO	-15
C[C@H]1CN([C@@H](C)CO)C(=O)c2cc(NS(=O)(=O)c3cn(C)cn3)ccc2O[C@H]1CN(C)S(C)(=O)=O	-17
C[C@@H]1CN([C@H](C)CO)C(=O)c2c(c3ccccc3n2C)-c2ccccc2CO[C@H]1CN(C)Cc1ccncc1	-8

Among those listed so far, 9 contain nitrogen in an aromatic ring:
SMILES	UUG fidelity
CCNC(=O)[C@@H]1[C@@H](CO)[C@@H]2Cn3c(ccc(-c4ccccc4OC)c3=O)[C@@H]2N1S(C)(=O)=O	28
O=C(C[C@H]1CC[C@H]2[C@@H](COC[C@@H](O)CN2Cc2nccs2)O1)NCc1ccc(Cl)cc1	-8
O=C(c1ccccn1)N1CC[C@@H]2[C@H](CO)Nc3ccc(-c4ccccc4F)cc3[C@@H]21	-13
C[C@@H]1CN([C@H](C)CO)C(=O)c2cc(NC(=O)c3ccncc3)ccc2O[C@@H]1CN(C)C(=O)Nc1ccc2c(c1)OCO2	-6
O=C(c1ccncc1)N1CCCCN2[C@H](CO)[C@@H](c3ccc(C#Cc4ccccn4)cc3)[C@H]2C1	2
COc1cccc(-c2ccc([C@@H]3[C@@H](CO)N4CCCCN(S(=O)(=O)c5cn(C)cn5)C[C@H]34)cc2)c1	12
CO[C@@H]1CN(C)C(=O)c2cc(NC(=O)c3cnccn3)ccc2OC[C@@H](C)N(C(C)=O)C[C@@H]1C	-9
C[C@H]1CN([C@@H](C)CO)C(=O)c2cc(NS(=O)(=O)c3cn(C)cn3)ccc2O[C@H]1CN(C)S(C)(=O)=O	-17
C[C@@H]1CN([C@H](C)CO)C(=O)c2c(c3ccccc3n2C)-c2ccccc2CO[C@H]1CN(C)Cc1ccncc1	-8

Quoted from the listing.
C[C@@H]1CN([C@H](C)CO)C(=O)c2cc(NC(=O)c3ccncc3)ccc2O[C@@H]1CN(C)C(=O)Nc1ccc2c(c1)OCO2 – UUG fidelity = -6
COc1ccc(S(=O)(=O)N2CC[C@H]3[C@@H](CO)N(C)c4ccc(C#Cc5ccccc5OC)cc4[C@H]32)cc1 – UUG fidelity = -12

Returning to the listing, repeating the 4 entries before the break.
SMILES	UUG fidelity
CO[C@@H]1CN(C)C(=O)c2cc(NC(=O)c3cnccn3)ccc2OC[C@@H](C)N(C(C)=O)C[C@@H]1C	-9
CN1c2ccc(C#Cc3ccc(F)cc3)cc2[C@H]2[C@H](CCN2S(=O)(=O)c2ccccc2F)[C@@H]1CO	-15
C[C@H]1CN([C@@H](C)CO)C(=O)c2cc(NS(=O)(=O)c3cn(C)cn3)ccc2O[C@H]1CN(C)S(C)(=O)=O	-17
C[C@@H]1CN([C@H](C)CO)C(=O)c2c(c3ccccc3n2C)-c2ccccc2CO[C@H]1CN(C)Cc1ccncc1	-8
O=C(c1cccc(F)c1)N1CC[C@@H]2[C@H](CO)Nc3ccc(C#Cc4cccc(F)c4)cc3[C@@H]21	-20
Cc1noc(C)c1NC(=O)Nc1cccc2c1O[C@H](CN(C)C(=O)NC1CCCCC1)[C@H](C)CN([C@@H](C)CO)C2=O	-4
CO[C@@H]1CN(C)C(=O)c2ccc(NC(=O)C3CCCC3)cc2OC[C@H](C)N(CC2CC2)C[C@H]1C	1
N#Cc1ccc(-c2ccc([C@@H]3[C@H](CO)N4CCCCN(C(=O)Nc5ccc(F)cc5)C[C@@H]34)cc2)cc1	2
Cc1noc(C)c1S(=O)(=O)Nc1ccc2c(c1)C(=O)N([C@@H](C)CO)C[C@H](C)[C@@H](CN(C)Cc1ccc(C(=O)O)cc1)O2	-15
COc1ccc(CN(C)C[C@@H]2Oc3ccc(NS(=O)(=O)c4ccc(F)cc4)cc3C(=O)N([C@H](C)CO)C[C@H]2C)cc1	-6
CO[C@H]1CN(C)C(=O)c2ccc(NC(=O)C3CC3)cc2OC[C@@H](C)N(Cc2nccs2)C[C@@H]1C	-12
CN(C)CCCNC(=O)C[C@H]1CC[C@H]2[C@H](COc3ccc(NC(=O)c4ccccc4F)cc3C(=O)N2C)O1	-9
C[C@H]1CN([C@@H](C)CO)C(=O)c2c(c3ccccc3n2C)-c2ccccc2CO[C@H]1CN(C)S(=O)(=O)c1ccc(C#N)cc1	-4
COc1ccccc1NC(=O)N1CCCCN2[C@H](C1)[C@@H](c1ccc(-c3ccccc3)cc1)[C@@H]2CO	3
C[C@H]1CN([C@@H](C)CO)C(=O)c2cc(NS(=O)(=O)c3ccc(F)cc3)ccc2O[C@@H]1CN(C)C	-1
CN(C)CC#Cc1ccc([C@@H]2[C@H](CO)N3CCCCN(C(=O)C4CC4)C[C@@H]23)cc1	18
C[C@@H]1CN([C@H](C)CO)C(=O)c2c(c3ccccc3n2C)-c2ccccc2CO[C@H]1CN(C)S(=O)(=O)c1ccccc1	6
C[C@@H]1CN([C@@H](C)CO)C(=O)c2cccc(NC(=O)c3ccc(-c4nccs4)cc3)c2O[C@H]1CN(C)C(=O)Nc1ccc(C(F)(F)F)cc1	3
Cc1noc(C)c1NC(=O)N(C)C[C@H]1Oc2ccc(NC(=O)Cn3cnnn3)cc2C(=O)N([C@@H](C)CO)C[C@H]1C	-3
O=C(NC[C@H]1[C@@H](c2ccccc2)[C@H](CO)N1CC1CC1)c1cccnc1	22
CC(C)NC(=O)N(C)C[C@@H]1Oc2ccc(NC(=O)Nc3ccccc3)cc2CC(=O)N([C@H](C)CO)C[C@@H]1C	-9
CO[C@@H]1CN(C)C(=O)c2cc(NC(C)=O)ccc2OC[C@@H](C)N(Cc2ccc(-c3ccccn3)cc2)C[C@H]1C	14
Cc1ccc(S(=O)(=O)N(C)C[C@@H]2Oc3ccc(NC(=O)NC4CCCCC4)cc3CC(=O)N([C@@H](C)CO)C[C@H]2C)cc1	18
COc1ccc(S(=O)(=O)N(C)C[C@H]2Oc3ccc(NC(=O)CCC(F)(F)F)cc3CC(=O)N([C@@H](C)CO)C[C@@H]2C)cc1	20
O=C(Nc1ccccc1)N1C[C@@H]2[C@H](c3ccccc31)[C@H](CO)N2Cc1cocn1	1
COCC(=O)Nc1ccc2c(c1)C(=O)N(C)C[C@H](OC)[C@H](C)CN(CC1CC1)[C@H](C)CO2	-10
CCS(=O)(=O)Nc1ccc2c(c1)C(=O)N(C)C[C@@H](OC)[C@@H](C)CN(C(=O)NC(C)C)[C@H](C)CO2	-2
O=C(Cc1ccccc1)N1CC[C@H]2[C@H](CO)Nc3ccc(-c4cccc(F)c4)cc3[C@H]21	-9
CCCNC(=O)N1[C@H](CO)[C@@H](c2ccc(C3=CCCC3)cc2)[C@@H]1CNC(C)=O	-1
COc1cccc(NC(=O)N(C)C[C@@H]2OCc3cnnn3CCCC(=O)N([C@@H](C)CO)C[C@@H]2C)c1	10
CCS(=O)(=O)N1CCCCN2[C@H](CO)[C@H](c3ccc(C#Cc4ccccc4OC)cc3)[C@H]2C1	13
COc1ccc(S(=O)(=O)Nc2ccc3c(c2)C(=O)N([C@H](C)CO)C[C@@H](C)[C@H](CN(C)Cc2ccncc2)O3)cc1	-10
COc1ccc(S(=O)(=O)Nc2ccc3c(c2)C(=O)N([C@H](C)CO)C[C@@H](C)[C@H](CN(C)Cc2ccc(C(F)(F)F)cc2)O3)cc1	-3
COCC(=O)N1[C@@H]2CN(C(=O)c3cccc(OC)c3)c3ccccc3[C@@H]2[C@@H]1CO	-16
CC(C)NC(=O)Nc1ccc2c(c1)CC(=O)N([C@H](C)CO)C[C@@H](C)[C@@H](CN(C)C(=O)NC(C)C)O2	-4
CCCC#Cc1ccc([C@@H]2[C@H]3CN(S(=O)(=O)CC)CCCCN3[C@H]2CO)cc1	4
COc1ccc(CN(C)C[C@@H]2Oc3c(NC(=O)C4CCOCC4)cccc3C(=O)N([C@@H](C)CO)C[C@H]2C)cc1	10
C[C@@H]1CN([C@H](C)CO)C(=O)c2cccc(NS(C)(=O)=O)c2O[C@H]1CN(C)Cc1ccc(Oc2ccccc2)cc1	0
CN(C)C(=O)c1cccc(-c2ccc3c(c2)[C@H]2[C@H](CCN2Cc2nccs2)[C@@H](CO)N3)c1	-1
O=C(NC[C@@H]1[C@@H](c2ccccc2)[C@@H](CO)N1C(=O)Cc1ccncc1)C1CCC1	-5
Cc1noc(C)c1NC(=O)N(C)C[C@@H]1Oc2ncc(C#CC(C)(C)O)cc2C(=O)N([C@H](C)CO)C[C@@H]1C	-8
O=C(C[C@@H]1CC[C@@H]2[C@H](COC[C@H](O)CN2S(=O)(=O)c2ccc(F)cc2)O1)N1CCc2ccccc2C1	18
CNC[C@@H]1[C@H](c2ccccc2)[C@H](CO)N1C(=O)Nc1cccc(OC)c1	-9
CN1CCN(C(=O)C[C@@H]2CC[C@@H]3[C@H](COC[C@H](O)CN3C(=O)Nc3ccc(Cl)cc3)O2)CC1	2
C[C@@H]1CN([C@@H](C)CO)C(=O)c2cccc(NS(=O)(=O)c3cn(C)cn3)c2O[C@@H]1CN(C)C	9
CCC(=O)N1[C@@H](CO)[C@H](c2ccc(-c3cccc(F)c3)cc2)[C@@H]1CNC(C)=O	2
C[C@@H]1CN([C@@H](C)CO)C(=O)c2cccc(NC(=O)Nc3ccccc3)c2O[C@H]1CN(C)C(=O)NC1CCCCC1	5
Cc1noc(C)c1NC(=O)N(C)C[C@H]1Oc2ccc(NS(=O)(=O)c3ccc(F)cc3)cc2C(=O)N([C@@H](C)CO)C[C@H]1C	-14
CC(C)C(=O)Nc1ccc2c(c1)C(=O)N(C)[C@H]1CC[C@H](CC(=O)Nc3cccc(F)c3)O[C@@H]1CO2	3
O=C(c1cccc(F)c1)N1C[C@H]2[C@@H](c3ccccc31)[C@@H](CO)N2C(=O)C1CCCCC1	-7
COc1ccccc1-c1ccc2c(c1)[C@@H]1[C@@H](CCN1S(=O)(=O)c1ccccc1F)[C@H](CO)N2	-16
Cc1ccc(S(=O)(=O)N2C[C@@H](O)COC[C@H]3O[C@H](CC(=O)NCc4ccc(Cl)c(Cl)c4)CC[C@@H]32)cc1	12
CCCC#Cc1ccc([C@@H]2[C@@H](CO)N3CCCCN(CC4CCOCC4)C[C@H]23)cc1	-7
C[C@H]1CN([C@@H](C)CO)C(=O)Cc2cc(NC(=O)NC3CCCCC3)ccc2O[C@@H]1CN(C)S(C)(=O)=O	-6
CNC[C@H]1Oc2ccc(NS(=O)(=O)c3ccccc3)cc2C(=O)N([C@@H](C)CO)C[C@H]1C	-8
O=C(c1cccnc1)N1C[C@H]2[C@@H](c3ccccc31)[C@@H](CO)N2C(=O)C1CCCCC1	21
CCC(=O)N1CC[C@@H]2[C@H]1c1cc(C#Cc3cccnc3)ccc1N[C@@H]2CO	1
CO[C@H]1CN(C)C(=O)c2cc(NC(C)=O)ccc2OC[C@@H](C)N(C(=O)c2ccccc2F)C[C@H]1C	-11
COc1ccc(NC(=O)N(C)C[C@H]2OCc3ccccc3-c3ccccc3C(=O)N([C@@H](C)CO)C[C@@H]2C)c(OC)c1	3
CN1c2ccc(Br)cc2[C@H]2[C@H](CCN2C(=O)c2cccc(F)c2)[C@H]1CO	14
C[C@@H]1CN([C@H](C)CO)C(=O)c2cccc(NC(=O)Nc3ccc4c(c3)OCO4)c2O[C@@H]1CN(C)C	-13
COc1ccc(CNC(=O)C[C@H]2C[C@@H]3c4cc(NS(=O)(=O)c5ccc(F)cc5)ccc4O[C@@H]3[C@H](CO)O2)cc1	9
COc1ccccc1C#Cc1ccc2c(c1)[C@@H]1[C@@H](CCN1C(=O)CN1CCOCC1)[C@@H](CO)N2	-6
COC(=O)C[C@@H]1CC[C@@H]2[C@H](COc3ccc(NC(=O)c4cnccn4)cc3C(=O)N2C)O1	-13
Cc1ccc(S(=O)(=O)Nc2cccc3c2O[C@@H](CN(C)C(=O)Nc2ccc4c(c2)OCO4)[C@@H](C)CN([C@@H](C)CO)C3=O)cc1	-10
C[C@H]1CN([C@@H](C)CO)C(=O)c2cc(N(C)C)ccc2O[C@H]1CN(C)C(=O)Nc1ccc(C(F)(F)F)cc1	-4
